VDR inhibitor = blocks the human vitamin D receptor; Potency, µM, for inactives: max response, negative = inhibition, usual class: inhibitors; AID 504847; P11473; hit rate 0.93% among 400,000; VDR-SRC2-3 peptide fluorescence polarization, 2 h; active = well fitted inhibition curve with a large enough effect; inconclusive = small, poorly fitted or top-dose-only effect, or another doubt; inactive = no such curve, though single readings can be large or run the other way; note: series mostly up to about 120 µM
Target sequence (P11473 whole entry, looked up): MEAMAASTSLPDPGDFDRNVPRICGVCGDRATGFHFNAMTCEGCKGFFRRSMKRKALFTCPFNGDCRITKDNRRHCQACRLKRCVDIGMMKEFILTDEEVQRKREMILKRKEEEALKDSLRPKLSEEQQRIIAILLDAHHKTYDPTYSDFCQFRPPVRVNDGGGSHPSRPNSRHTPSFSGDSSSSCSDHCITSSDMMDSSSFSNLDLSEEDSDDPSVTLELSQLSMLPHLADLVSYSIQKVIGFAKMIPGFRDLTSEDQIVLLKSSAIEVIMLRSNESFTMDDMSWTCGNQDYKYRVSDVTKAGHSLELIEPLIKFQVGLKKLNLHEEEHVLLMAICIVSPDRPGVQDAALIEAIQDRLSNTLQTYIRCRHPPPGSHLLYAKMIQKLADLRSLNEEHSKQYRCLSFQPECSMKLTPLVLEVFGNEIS
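Compounds are added to VDR with labelled SRC2-3 coactivator peptide and held 2 h at room temperature. Inhibition of the VDR–peptide interaction is then read as a change in fluorescence polarization.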
Starred values were filed as active, the others as inactive; u = inconclusive; [ ] = dose if it differs, or a comment. % is set by controls: 0 for no effect and ±100 for the full control effect; potency is the fitted concentration of half-maximal effect. An excerpt; the hit share may differ from the screen's.

VDR inhibitor | mol
-15% | CCOC(=O)C1=C(CN(CC)Cc2ccccc2)NC(=O)NC1c1ccc(OC(C)C)cc1 (stereo unspecified)
-8% | CCCC(C)C1c2c(c(C)c(C)oc2=O)Oc2c(C)c(C)oc(=O)c21 (stereo unspecified)
-16% | COc1ccc(S(=O)(=O)N2CCOC23CCN(S(=O)(=O)c2ccc(Cl)cc2)CC3)cc1
4% | Cc1ccc(NC2SC(=O)N(Cc3cccc(C(=O)O)c3)C2=O)cc1 (stereo unspecified)
-7% | CC(C)C[C@@H](CC(=O)N[C@@H](CCC(=O)O)CC(=O)O)NC(=O)[C@@H]1CNCC[C@H]1NC(=O)C[C@H](CCCN)NC(=O)C[C@H](Cc1ccccc1)NC(=O)[C@@H]1CNCC[C@H]1N
-12% | Cc1ccc(-c2nnn3c2nc(Cl)c2ccccc23)cc1
6% | CCOc1cc(C(=O)Nc2ncccn2)cc(OCC)c1OCC
1% | CCOc1cc(OCC)nc(S(C)(=O)=O)n1
-13% | CC1CN(Cc2nc3c(c(=O)n(C)c(=O)n3C)n2Cc2cccc(Cl)c2)CC(C)O1 (stereo unspecified)
-14% | COc1ccc(-n2nc(C(=O)NCC(=O)NCc3ccco3)c3ccccc3c2=O)cc1Cl

In another format: results already given.
CCOc1cc(C(=O)Nc2ncccn2)cc(OCC)c1OCC
  VDR inhibitor: 6%
CCOc1cc(OCC)nc(S(C)(=O)=O)n1
  VDR inhibitor: 1%

Following part
VDR inhibitor | mol
6% | O=C(CSc1nnc(-c2ccc(OC(F)F)cc2)o1)NCc1cccs1
u | COc1ccc(OCCOCCOc2ccc(C)cc2[N+](=O)[O-])cc1
3% | O=C(Oc1cccc(N2C(=O)C3C4c5ccccc5C(c5ccccc54)C3C2=O)c1)c1ccco1 (stereo unspecified)
6% | Cc1ccc(NC(=S)N2CCCC(CO)C2)c(C)c1 (stereo unspecified)
-1% | CN(CC(=O)NNC(=O)CNC(=O)c1ccccc1Cl)S(=O)(=O)c1ccc(Cl)cc1
-19% | Cc1ccc(S(=O)(=O)N2CCN(S(=O)(=O)c3ccccc3Br)CC2)cc1
-17% | CC(=O)Nc1ccc(SCC(CC(C)C)N2CCN(C)CCC2=O)cc1 (stereo unspecified)
-7% | CCOC(=O)Nc1ccc2c(CN3C(=O)NC(CC)(CC)C3=O)cc(=O)oc2c1
-4% | O=C1CC(NC(=O)C(F)(F)F)=NN1c1ccccc1
-9% | COc1cccc(NC(=O)Cn2c(=O)n(CCCCC(=O)NCc3ccccc3Cl)c(=O)c3ccccc32)c1
-2% | Cc1cc(NC(=O)c2c([N+](=O)[O-])cnn2C)no1
-13% | CCCNc1c(NS(=O)(=O)c2ccc(C)c(C)c2)c(=O)oc2ccccc12
14% | Clc1ccc(CCNc2ncnc3c2c(-c2ccccc2)cn3-c2ccccc2)cc1
-40% | O=C(Nc1ccccn1)C12CC3CC(CC(C3)C1)C2
2% | CS(=O)(=O)N(CC(=O)Nc1ccccc1C(=O)N1CCOCC1)c1ccc(F)c(Cl)c1
2% | CCc1ccc(NC(=O)CSc2nc3[nH]ncc3c(=O)[nH]2)cc1
1% | Cc1ccc(NC(=O)NC(C)c2c(-n3cccc3)sc(C)c2C)cc1F (stereo unspecified)
2% | Cc1nc(-c2ccncc2)sc1C(=O)Nc1ccc(Cl)cc1
3% | CC1CC(C)CN(C(=O)CCCn2c(=S)[nH]c3ccccc3c2=O)C1 (stereo unspecified)
-17% | CC[C@]12c3[nH]c4cc(CCC(=O)N(C)C)ccc4c3CCN1C(=O)[C@@H](CC(=O)NCCC1=CCCCC1)C[C@@H]2C(=O)N1CCN(C(=O)c2ccco2)CC1
-4% | CC(C)=CCC/C(C)=C/C=N/NC(=O)c1cccc([N+](=O)[O-])c1
0% | CCC(C(=O)NCC1CCCO1)N(C(=O)c1snc(C(N)=O)c1N)c1ccc(Cl)cc1 (stereo unspecified)
-1% | Cc1ccc(NC(=O)C(c2ccccc2)c2ccccc2)c(O)c1
-2% | COc1ccc(-c2nc(CS(=O)CC(=O)NCc3ccccc3OC)c(C)o2)cc1 (stereo unspecified)
-4% | N#Cc1ccsc1NC(=O)CN1CCN(Cc2ccccc2)CC1
-10% | CCC(=O)N1CCCc2cc(S(=O)(=O)N3CCC(C(=O)NC4CCC(C)CC4)CC3)ccc21 (stereo unspecified)
-12% | Nc1ccn(CC(=O)NCCCc2ccccc2)c(=O)n1
5% | CCOc1ccc(Br)cc1S(=O)(=O)Nc1ccc(C(=O)OCC(=O)N(C)c2ccccc2)cc1
1% | Cc1cccc(C(=O)N2CC3(C)CC2CC(C)(C)C3)c1 (stereo unspecified)
4% | CCN(CC)c1ccc(NC(=O)/C=C\c2ccccc2Cl)cc1
1% | COc1ccc(CC(=O)N(C)Cc2ccc(Cl)cc2)cc1S(=O)(=O)N1CCOCC1
-2% | COC(=O)c1ccccc1NC(=O)c1cnn2c(C)cc(C)nc12
0% | COc1ccc(C2CC3(CC(C)(C)NC(=O)N3)Oc3cc(O)ccc32)cc1 (stereo unspecified)
9% | COc1ccc(-c2nnc(SCC(=O)O)n2C)cc1OC
10% | Cc1nc(-c2ccc(C(F)(F)F)cc2)sc1C(=O)NN
4% | Cc1ccc(NC(=O)N2CCC(O)(c3cccnc3)CC2)cc1
-14% | CC1C(=O)N2CCCc3cc(NS(=O)(=O)c4ccccc4)cc1c32 (stereo unspecified)
4% | O=C(NCc1ccccc1)[C@@H]1CSC2c3ccccc3C(=O)N21 (stereo partly specified)
-12% | CSc1ccc(C2(O)Cc3cccc[n+]3C2c2ccccc2)cc1 (stereo unspecified)
16% | Cc1cc(NC(=O)CN2C(=O)N(C)C3(CCCCC3)C2=O)ccc1Br
u | COc1cc(/C=C/C(=O)c2ccc(O)cc2)ccc1OCC#N
73%[activator] | Cc1ccc(S(=O)(=O)c2c(N)n(Cc3ccco3)c3nc4ccccc4nc23)cc1
10% | CCCNC(=O)C(Cc1ccccc1F)NC(=O)c1ccc(C#N)cc1 (stereo unspecified)
-10% | O=C(Cc1nnc(NC(=O)Nc2ccc(F)cc2)s1)NCc1ccccc1
-8% | CCN(CC(=O)NC(=O)NCc1ccccc1)CC(=O)Nc1cc(Cl)ccc1C
-9% | O=C(NC1CCS(=O)(=O)C1)c1cccc(Br)c1 (stereo unspecified)
-3% | COc1ccc(NC(=O)CCSc2nc(C)cs2)cc1
u | COc1ccc([C@H]2[C@H](C(C)=O)N3N=Cc4ccccc4C3C23C(=O)OC(C)(C)OC3=O)cc1 (stereo partly specified)
-9% | CCc1cccc(C)c1NC(=O)CN1C(=O)NC(C)(CCC(C)C)C1=O (stereo unspecified)
-12% | CCOc1ccc2[nH]c(=O)c(CN(CCCO)S(=O)(=O)c3ccc(F)cc3)cc2c1

The list goes on.
VDR inhibitor | mol
-4% | O=C(Cc1ccc([N+](=O)[O-])cc1)Nc1cccc(C(=O)N2CCCC2)c1
9% | Cc1cc(OCC(=O)NNC(=O)c2cnccn2)cc(C)c1Cl
9% | COc1ccc(NC(=O)c2ccc3ncsc3c2)cc1
8% | CCN(CC)C(=O)COc1ccc2oc(C)c(C(=O)OC(C)C)c2c1
-13% | O=C(O)CC1(CC(=O)Nc2ccc(F)cc2F)CCCCC1
5% | Cn1nc(C(F)(F)F)c(-c2cccc(C(F)(F)F)c2)c1NC(=O)c1nccnc1C(=O)O
-5% | Cc1cccc(NC(=O)C2c3ccccc3Oc3ccccc32)n1
17% | CC(=O)c1nn(-c2cccc(Br)c2)cc1C(=O)c1cccc2ccccc12
16% | CCC(C(=O)Nc1ccccc1C(=O)N1CCCC1)N1C(=O)c2ccccc2C1=O (stereo unspecified)
-1% | Cc1ccc2nc(Nc3nc(CSc4nnnn4-c4ccccc4)cc(=O)[nH]3)nc(C)c2c1
0% | CCCNC(=O)c1nc(C)n(-c2cc(Cl)ccc2Cl)n1
5% | COc1cccc(/C=C/C(=O)OCC(=O)NC2CCCCCCC2)c1
-16% | COCCSc1ccccc1C(=O)NCC1CCCO1 (stereo unspecified)
7% | O=C(NCCCN1CCN(c2cccc(Cl)c2)CC1)c1ccc2nc(Cc3ccccc3)oc2c1
18% | O=C1CC[C@@H](CN(Cc2ccccc2)Cc2cn[nH]c2-c2cc3ccccc3o2)N1
-6% | COc1cc(C(C)=O)ccc1OCC(=O)Nc1cc(Cl)ccc1-n1cncn1
-2% | O=C(c1cc(F)cc(F)c1)N1CCC(c2nc(-c3ccc(S(=O)(=O)N4CCCC4)cc3)no2)CC1
1% | COCCCNC(=S)NNC(=O)c1ccc(S(=O)(=O)N2CCC(C)CC2)cc1
-9% | C=CCOn1c(=O)c(-c2ccc(C)cc2)[n+]([O-])c2ccccc21
2% | COc1ccc(NC(=O)COc2nc(N(C)C)nc(N(C)C)n2)cc1
-27% | COc1ccccc1NC(=O)C(C)OC(=O)CCCN=C1NS(=O)(=O)c2ccccc21 (stereo unspecified)
17% | COc1ccc(CN(C)C(=O)c2cccc(S(=O)(=O)N3CCCc4ccccc43)c2)c(OC)c1OC
10% | Cc1ccccc1Nc1c(-c2cccc(Cl)c2)nc2ncccn12
1% | Cc1c(C(=O)N/N=C/c2cccc(O)c2)nnn1-c1nonc1N
-13% | O=C(CCCN1C(=O)c2ccccc2C1=O)Nc1c2c(nc3c1CCC3)CCC2
-9% | OC1CCN(C(c2ccc3ncccc3c2)c2nnnn2C2CCCCC2)CC1 (stereo unspecified)
12% | C=Cn1cc[n+](CC(=O)c2ccc(C)cc2)c1
-4% | CCSc1nnc(NC(=O)C2CCCN(S(=O)(=O)c3cnc[nH]3)C2)s1 (stereo unspecified)
-6% | Cc1cc2nc3n(c2cc1C)CC1CC(C(=O)NCc2cccc(Br)c2)N(C)C31 (stereo unspecified)
9% | COc1cccc(N2C(=O)CSC23C(=O)N(Cc2ccccc2F)c2ccccc23)c1 (stereo unspecified)
-4% | CCC(=O)c1ccc(OCC(=O)OC(C)C(=O)N2CCc3ccccc32)cc1 (stereo unspecified)
-1% | O=C(NCCc1ccc(F)cc1)C(=O)NCC1CCCN1S(=O)(=O)c1cccs1 (stereo unspecified)
-21% | CCNC(=S)NNC(=S)NCc1ccccc1
-10% | N#Cc1ccccc1OCC(=O)NC(=O)NCc1ccco1
-26% | Cc1ccc(NS(=O)(=O)c2ccc(F)cc2)nc1
-13% | Cc1ccc(COc2ccc(CNCCCN3CCCCCC3=O)cc2)cc1
4% | Nc1ccc(S(N)(=O)=O)cc1N
-4% | Cc1ccccc1OCCN1C(=O)NC2(CCCc3ccccc32)C1=O (stereo unspecified)
-5% | CCCc1ccc(OCc2ccc(C(=O)Nc3cccc(C)n3)o2)c(OC)c1
5% | O=C(Cn1cc(SCc2cccc(F)c2)c2ccccc21)N1CCOCC1
-9% | CCN1CCN(C(=O)Cn2ncc3ccsc3c2=O)CC1
8% | CCn1c(N2CCN(C(=O)/C=C/c3ccccc3)CC2)nc2ccccc21
9% | CC1CCN(S(=O)(=O)c2ccc(NC(=O)[C@@H]3CCCC[C@@H]3C(=O)O)cc2)CC1
14% | O=C(/C=C/c1cccc([N+](=O)[O-])c1)NCCSCc1cccc(Cl)c1
1% | O=S(=O)(Nc1ccccc1N1CCCCC1)c1ccccc1
-11% | COc1ccccc1S(=O)(=O)Cc1ccc(C(=O)N2CCN(c3cc(Cl)ccc3C)CC2)o1
-4% | COc1c(C)cccc1C(=O)Nc1cc(-c2nn3c(C)nnc3s2)ccc1C
u | COc1ccccc1NC(=S)NCCc1ccccc1
-13% | COc1ccc2c(c1)c(C(=O)N/N=C/c1ccc(Br)cc1)c(C)n2C
-1% | CCOC(=O)c1ccc(NC(=O)Nc2c(C)nn(C)c2C)cc1

New compounds follow:
VDR inhibitor | mol
-6% | CCc1ccc(NC(=O)COc2ccc3c(c2)OCO3)cc1
-12% | Cc1cc(C)n(CC2CC(=O)N(c3ccccc3)C2=O)n1 (stereo unspecified)
1% | CN[C@H]1CCc2cc(OC)c(OC)c(OC)c2-c2ccc(N(C)CC(OC)OC)c(=O)cc21
-5% | COC(=O)CNC(=O)COC(=O)/C=C/c1cccs1
u | CCOC(=O)c1cc(-c2ccc(/C=C3/C(=O)N(c4ccc(C(=O)O)cc4)N=C3C)o2)ccc1Cl
-21% | Cc1ccsc1C(=O)NCCc1ccco1

By substructure, the compounds so far with fluorine
VDR inhibitor | mol
6% | O=C(CSc1nnc(-c2ccc(OC(F)F)cc2)o1)NCc1cccs1
-4% | O=C1CC(NC(=O)C(F)(F)F)=NN1c1ccccc1
2% | CS(=O)(=O)N(CC(=O)Nc1ccccc1C(=O)N1CCOCC1)c1ccc(F)c(Cl)c1
1% | Cc1ccc(NC(=O)NC(C)c2c(-n3cccc3)sc(C)c2C)cc1F (stereo unspecified)
10% | Cc1nc(-c2ccc(C(F)(F)F)cc2)sc1C(=O)NN
10% | CCCNC(=O)C(Cc1ccccc1F)NC(=O)c1ccc(C#N)cc1 (stereo unspecified)
-10% | O=C(Cc1nnc(NC(=O)Nc2ccc(F)cc2)s1)NCc1ccccc1
-12% | CCOc1ccc2[nH]c(=O)c(CN(CCCO)S(=O)(=O)c3ccc(F)cc3)cc2c1
-13% | O=C(O)CC1(CC(=O)Nc2ccc(F)cc2F)CCCCC1
5% | Cn1nc(C(F)(F)F)c(-c2cccc(C(F)(F)F)c2)c1NC(=O)c1nccnc1C(=O)O
-2% | O=C(c1cc(F)cc(F)c1)N1CCC(c2nc(-c3ccc(S(=O)(=O)N4CCCC4)cc3)no2)CC1
9% | COc1cccc(N2C(=O)CSC23C(=O)N(Cc2ccccc2F)c2ccccc23)c1 (stereo unspecified)
-1% | O=C(NCCc1ccc(F)cc1)C(=O)NCC1CCCN1S(=O)(=O)c1cccs1 (stereo unspecified)
-26% | Cc1ccc(NS(=O)(=O)c2ccc(F)cc2)nc1
5% | O=C(Cn1cc(SCc2cccc(F)c2)c2ccccc21)N1CCOCC1
